TRPML1 agonist: qHTS for Agonists of the Human Mucolipin Transient Receptor Potential 1 (TRPML1). TRPML1-expressing cells, Ca2+ dye fluorescence, FDSS; host cell line not named in the record; reference of the full effect not given here. activation, % (concentration not given with the values). hit rate 0.12% among 410,000; in the data active = activation above about 50%; inconclusive = about 30% to 50%; inactive = below about 30%; note: 0% is about no effect; the text of the record puts the active cut at 80%
Target sequence (Q9GZU1 whole entry, looked up): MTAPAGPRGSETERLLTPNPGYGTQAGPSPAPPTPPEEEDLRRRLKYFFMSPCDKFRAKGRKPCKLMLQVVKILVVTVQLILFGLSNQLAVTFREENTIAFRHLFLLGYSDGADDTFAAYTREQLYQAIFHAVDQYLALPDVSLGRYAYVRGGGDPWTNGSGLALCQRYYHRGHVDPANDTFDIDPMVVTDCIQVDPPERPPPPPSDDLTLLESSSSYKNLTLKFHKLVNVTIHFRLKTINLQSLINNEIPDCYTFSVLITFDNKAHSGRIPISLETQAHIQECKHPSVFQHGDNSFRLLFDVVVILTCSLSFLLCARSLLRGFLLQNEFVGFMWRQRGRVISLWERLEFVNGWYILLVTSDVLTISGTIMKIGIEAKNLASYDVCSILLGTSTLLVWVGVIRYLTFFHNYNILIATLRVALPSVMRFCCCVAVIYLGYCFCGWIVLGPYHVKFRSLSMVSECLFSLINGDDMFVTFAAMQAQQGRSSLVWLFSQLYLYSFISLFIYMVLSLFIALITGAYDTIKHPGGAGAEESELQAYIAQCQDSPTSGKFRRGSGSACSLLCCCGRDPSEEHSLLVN
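Tet-induced TRPML1-DL cells, 1,500 per well, cultured overnight, were loaded with a no-wash Ca2+ dye for 45–90 min. Calcium fluorescence was recorded on the FDSS for 110 s after compound addition, before the EC80 agonist (4 uM 54-4) was added.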
PINK1 modulator: A Quantitative High throughput Screen to Identify Chemical Modulators of PINK1 Expression; PINK1 immunofluorescence, high-content cytometry, 24 h; hit rate 0.2% among 410,000; AID 624263, 2012; Potency, µM (top dose mostly 76.6 µM), for the others: at the top dose activation (PINK1 increase), most hits filed as activators; active = well fitted activation curve with a large enough effect; inconclusive = small, poorly fitted or top-dose-only effect; inactive = flat fitted curve, though single readings scatter; cell line not stated here;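 note: potency is the fitted concentration of half-maximal effect; % of control where 0% means no effect; nearly all actives have a fitted effect of over 65% in size; a mitochondrial uncoupler was the plate control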
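Measures PINK1 amount and localization on or inside mitochondria by immunofluorescence. Stable cells get compounds at 5 concentrations for 24 hours before fixation and staining; CCCP controls included.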
Six1-Eya2 blk: qHTS Assay for Inhibitors of the Six1/Eya2 Interaction; activity change, % (test concentration not listed); AID 651725, 2012; hit rate 0.56% among 360,000; AlphaScreen GST-Six1/His-Eya2 binding, biochemical; active compounds read low; control for the full effect not named in the record; Homeobox protein SIX1 (Homo sapiens) + Protein phosphatase EYA2 (Homo sapiens), …; in the data active = activity change below about -65%; inconclusive = about -30% to -65%; inactive = above about -30%; note: % is set by controls: 0 for no effect and ±100 for the full control effect
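AlphaScreen with GST-Six1 and His-Eya2 (5X mix: 250 nM and 500 nM), glutathione donor and nickel acceptor beads; buffer 50 mM Tris pH 8.0, 300 mM NaCl, 1 mM TCEP; 1 h at 37 C in the dark.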
D2 ag: Beta-Arrestin HTS for Positive Allosteric Modulators of the Human D2 Dopamine Receptor: Agonists. D(2) dopamine receptor (Homo sapiens), P14416. DiscoveRx PathHunter D2 beta-arrestin, luminescence, 90 min; 100% = 57 uM dopamine signal. activation, % (concentration not given with the values). hit rate 0.084% among 360,000; in the data active = activation above about 40%; inconclusive = about 15% to 40%; inactive = below about 15%; note: compound concentration not given in the record; the text of the record calls up to 30% inactive
Target sequence (P14416 whole entry, looked up): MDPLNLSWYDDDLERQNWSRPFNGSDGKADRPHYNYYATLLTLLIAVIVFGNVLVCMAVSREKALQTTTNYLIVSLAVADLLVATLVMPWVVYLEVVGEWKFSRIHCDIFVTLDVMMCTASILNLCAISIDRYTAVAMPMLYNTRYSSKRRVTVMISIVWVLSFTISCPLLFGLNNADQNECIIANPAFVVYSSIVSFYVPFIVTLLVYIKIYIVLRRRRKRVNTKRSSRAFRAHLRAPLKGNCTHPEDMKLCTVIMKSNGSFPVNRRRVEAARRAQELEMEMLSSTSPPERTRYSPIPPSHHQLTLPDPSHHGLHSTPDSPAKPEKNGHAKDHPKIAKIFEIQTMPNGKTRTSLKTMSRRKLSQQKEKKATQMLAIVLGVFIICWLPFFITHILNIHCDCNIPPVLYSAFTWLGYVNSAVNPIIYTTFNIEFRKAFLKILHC
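DiscoveRx PathHunter D2 beta-arrestin cells (2,100/well) attached overnight, then compound-stimulated 90 min at 37 C in HBSS/10 mM HEPES/0.1% Tween-20 buffer; beta-galactosidase complementation read by luminescence after 1 h at ambient temperature. Dopamine 57 uM final (EC100) as control.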
TRPML1 inh: qHTS for Inhibitors of the Human Mucolipin Transient Receptor Potential 1 (TRPML1); TRPML1-inducible cells, Ca2+ dye fluorescence, FDSS; active compounds read low; inhibition of EC80 agonist-evoked calcium signal; activity change, negative = inhibition, % (test concentration not listed); hit rate 0.02% among 390,000; in the data active means activity change below about -50%; inconclusive means about -30% to -50%; inactive means above about -30%;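 note: stimulus is agonist 54-4 at its EC80 concentration; % is set by controls: 0 for no effect and ±100 for the full control effect; compound concentration not given in the record; the text of the record puts the active cut at -80%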
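TRPML1-DL cells, Tet-induced overnight (~16 h, 37 °C) at 1,500 cells/well, were loaded with Ca8 no-wash dye plus quencher for 45-90 min at room temperature. Compounds were pinned during FDSS kinetic reading; agonist 54-4 at EC80 (4 uM final) then added.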
CtBP-E1A inh: qHTS Assay for Inhibitors of the CtBP/E1A Interaction. CtBP / adenovirus E1A interaction (AlphaScreen). AlphaScreen GST-E1A/His-CtBP binding, 1536-well; active compounds read low; control for the full effect not named in the record. activity change, % (concentration not given with the values). hit rate 0.49% among 340,000; in the data active means activity change below about -65%; inconclusive means about -30% to -65%; inactive means above about -30%; note: % is set by controls: 0 for no effect and ±100 for the full control effect
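In 5 uL wells, 23 nL compound meets equimolar GST-E1A and His-CtBP (5X stock 125 nM each) for 2 h, 37 °C. Beads (5X, 50 ug/mL) then 1 h, 37 °C, dark.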
Starred values were filed as active, the others as inactive; ? = inconclusive; · = not tested or not shown; & = joins results of further samples; [ ] = another dose, or the depositor's remark.

SMILES	TRPML1 agonist	PINK1 modulator	Six1-Eya2 blk	D2 ag	TRPML1 inh	CtBP-E1A inh
CC(C)C[C@@H](CN1CCCC1CN1C(=S)NC[C@@H]1Cc1ccc(O)cc1)N1C[C@H](Cc2ccccc2)N(CCc2ccccc2)C1=S (stereo not given in full)	-0.4	2.5%	-13	1.1	-6	?
CCOC(=O)c1c(-c2ccccc2)csc1NC(=O)CSc1nnc(C)s1	1.1	1.2%	-9	-1.9	5	0
CCN(CC)CCNC(=O)c1ccc(NC(C)=O)cc1	-0.1&0.2	-0.3%&0.6%	1&2	-2.4&0.4	-11&19	3&5
Cc1nc2nc(C)c(CCC(=O)Nc3ccc4c(c3)OCO4)c(C)n2n1	-0.1	9.8%[38.3 µM]	-19	-3.5	19	-22
Cc1ccc(CCn2c3c(c4ccccc42)CN(C)CC3)cn1	-0.7	·	-7	-1.8	-5	2
O=C(Nc1ccccn1)c1ccc(S(=O)(=O)N2CCCC2)cc1	3.2	0.0%	12	0.9	7	0
O=C(/C=C/c1cccc([N+](=O)[O-])c1)Nc1ccccn1	3.1	1.5%	6	4.5	-21	·
CC(Sc1nc(-c2ccccc2)cc(C(F)(F)F)n1)C(=O)O (stereo not given)	1.3	1.3%	-6	-2.5	-2	·
CCOC(=O)c1ccc(N=C2SC(C(=O)NC)CC(=O)N2CCc2ccccc2)cc1 (stereo not given)	0.3	8.0%	-11	-1.9	0	-13
N#C/C(=C\c1cccc(F)c1)c1nc(-c2cc3c(ccc4ccccc43)oc2=O)cs1	-0.4	0.6%	·	·	-10	·
Cn1c(=O)c2c(nc(N3CCNCC3)n2Cc2cccc3ccccc23)n(C)c1=O	0.0	-0.2%	0	-12	33	4
COc1ccccc1CNC(=O)CSc1ncc2c(n1)-c1ccccc1N(Cc1ccc(C)cc1)S2(=O)=O	-0.8	0.8%	·	·	2	·
Cc1ccc(OCC(=O)N/N=C/c2ccccc2)c([N+](=O)[O-])c1	-0.2	1.6%	-1	-0.4	51	20
O=c1oc2ccccc2cc1-c1cn2ccccc2n1	0.5	-0.1%	15	3.9	-23	19
COc1cc(N)c(Cl)cc1C(=O)OCC(=O)NC1CCCC1	0.0	3.7%	7	-5.9	-15	-2
CCOC(=O)C1(CC2CCCCO2)CCN(C(=O)Nc2ccc(C)c(C)c2)CC1 (stereo not given)	-1.2	0.9%	-4	-1.6	2	·
N#Cc1ccccc1NC(=O)COc1c(Br)cc(Br)c2cccnc12	-0.5	7.9%	-16	6.9	2	?
Cc1nc(Cn2c3ccc(NC(=S)NC4CCCCC4)cc3c(=O)n2C)cs1	-0.8	1.6%	-5	-0.5	·	-6
CCCCN(C)C(=O)c1ccc(Nc2nc(C(N)Cc3ccc(C(F)(F)F)cc3)cs2)nc1 (stereo not given)	1.3	-0.7%	-13	8.1	·	-14
COc1ccccc1CNC(=O)CCSCc1cccc(Cl)c1	8.2	5.1%	-1	0.3	34	3
COC(=O)c1ccc(CC2(C)C(=O)Nc3ccc(OC(F)(F)F)cc32)o1 (stereo not given)	-0.3	2.0%	25	-7.4	·	0
CCCCCC(=O)NNC(=O)c1ccc(F)cc1	-0.2	-0.2%	5	1.5	4	14
CCC1=Nc2cc(C(=O)NCCCOC)ccc2Sc2ccccc21	0.0	3.8%	22	-3.5	-6	0
OC[C@@H]1CN(Cc2ccccc2)C[C@H](n2cnc3c(NCc4ccco4)ncnc32)O1	-0.1	-0.7%	-6	-2.3	-21	-5
CCOC(=O)c1c(C(=O)OCC)c(C)n(CCc2ccc(OC)c(OC)c2)c1C	0.8	0.5%	-15	1.8	7	-3
CC(C)CN(C(=O)CSc1nncn1C)C1CCS(=O)(=O)C1 (stereo not given)	-0.2	4.8%	13	-2.2	15	-11
CC(Sc1nc2cc([N+](=O)[O-])ccc2n1-c1ccc(F)cc1)C(=O)NCc1ccc2c(c1)OCO2 (stereo not given)	-0.2	-0.1%	-21	-8.5	6	-26
O=C(CCn1c(=O)c2sccc2n(CC(=O)Nc2ccccc2)c1=O)NCc1ccccc1Cl	1.5	5.3%	·	·	0	·
O=C1CCC/C(=N\NC(=O)NC2CCCCC2)C1	0.0	-0.6%	5	1.9	12	2
COC(=O)C1=CN(C(C)C)C=C(C(=O)OC)C1c1cc2c(cc1Br)OCO2	0.9	-2.7%[38.3 µM]	33	-2.2	22	38
O=C(COC(=O)CC1CCCC1)Nc1ccc(Cl)cn1	-1.0	3.5%	4	1.7	6	13
Cc1ccc(C(NC(=O)C2CCN(CCOc3ccc(Cl)cc3Cl)CC2)c2ccccn2)cc1 (stereo not given)	0.5	-1.3%	-7	-8.4	·	?
CCc1nnc(NC(=O)CSc2nnc(CSc3nc(C)cc(C)n3)o2)s1	-0.3	0.8%[38.3 µM]	-25	0.2	-1	?
COc1cccc(/C=N/NC(=S)NC2CC3CCC2C3)c1OC (stereo not given)	0.0	4.5%	-3	-5.7	16	·
Cc1ccc(C)c(N2CC(O)(c3cccs3)[N+]3=C2CCCC3)c1 (stereo not given)	0.9	2.7%	21	-5.6	-22	0
Cc1onc(-c2ccccc2)c1C(=O)NC(C)c1ccc2c(c1)OCO2 (stereo not given)	-0.6	-0.7%	8	-1.5	-9	7
Cc1ccc(N(C(=O)CNC(=O)c2ccco2)C(C(=O)NC2CCCCC2)c2cccnc2)cc1C (stereo not given)	-0.1	3.2%	0	-8.3	-13	23
CC1CCN(CCCNC(=O)COc2cc(=O)n(C)c3ccccc23)CC1	-0.3	6.9%	-2	-1.2	-10	-2
CC(=O)c1cccc(N(C(=O)c2ccco2)C(C(=O)NC2CCCC2)c2ccc(N3CCOCC3)cc2)c1 (stereo not given)	0.1	-0.4%	4	-2.8	-3	5
O=C(Nc1ccccc1F)c1ccc(CN2CCN(c3ccccc3)CC2)cc1	2.3	3.1%	-13	?	-20	-21
O=C(CCl)Nc1ccccc1Sc1ccc(Cl)cc1	0.4	·	3	-4.1	9	7
CCN(CC)C(=O)C1=C(C)N(Cc2ccc(C(C)(C)C)cc2)C(=O)C(CC(=O)NCC2CCCCC2)C1 (stereo not given)	-0.1	-0.6%	19	4.0	-26	0
CCOC(=O)c1c(/N=C/N(C)C)sc(/C=N/Nc2ccccc2)c1-c1ccccc1	5.1	-0.9%	1	0.7	-2	1
COc1ccccc1CNC(=O)CS(=O)(=O)c1ccc(C)cc1	-0.1	-0.5%	3	3.2	4	0
O=C(NCCc1ccccc1)c1ccc(NC(=O)C2CCC2)cc1	1.0	2.5%	7	-0.3	4	-6
COc1ccc(N2C(=O)CC(NNC(=O)c3cccnc3)C2=O)cc1 (stereo not given)	0.5	-0.6%	4	-2.3	9	1
CC(=O)Nc1cccc(NC(=O)c2c(-c3ccccc3Cl)noc2C)c1	0.5	·	2	3.7	23	14
COc1ccccc1NC(=O)COC(=O)CCC(=O)c1cccs1	-1.0	1.8%	-3	-4.6	6	3

4 entries picked at random from the list so far:
SMILES	TRPML1 agonist	PINK1 modulator	Six1-Eya2 blk	D2 ag	TRPML1 inh	CtBP-E1A inh
COc1ccc(N2C(=O)CC(NNC(=O)c3cccnc3)C2=O)cc1 (stereo not given)	0.5	-0.6%	4	-2.3	9	1
CC(=O)Nc1cccc(NC(=O)c2c(-c3ccccc3Cl)noc2C)c1	0.5	·	2	3.7	23	14
CCN(CC)C(=O)C1=C(C)N(Cc2ccc(C(C)(C)C)cc2)C(=O)C(CC(=O)NCC2CCCCC2)C1 (stereo not given)	-0.1	-0.6%	19	4.0	-26	0
COc1ccccc1CNC(=O)CS(=O)(=O)c1ccc(C)cc1	-0.1	-0.5%	3	3.2	4	0

The listing continues.
SMILES	TRPML1 agonist	PINK1 modulator	Six1-Eya2 blk	D2 ag	TRPML1 inh	CtBP-E1A inh
Cn1c(=O)c(/C=C/c2ccccc2)nc2ccccc21	-0.3	3.2%	36	-2.9	41	10
O=C(O)C(C(=O)O)=C1C2CC3CC(C2)CC1C3	-0.2	-0.2%	11	-0.6	52	14
CCc1ccccc1NC(=O)CSc1nnc(C2CC2)n1CC1CCCO1 (stereo not given)	0.0	-1.2%	4	1.5	19	1
COc1ccc(OC)c(C(=O)COC(=O)CNC(=O)c2ccccc2)c1	0.3	-0.4%	7	-7.2	2	-1
Cc1ccc2nsnc2c1NC(=O)c1cccnc1Cl	-0.2	0.5%	3	1.5	6	-3
Clc1ccccc1OCCn1nnc2ccccc21	0.2	-1.4%	4	3.6	1	14
COc1cc(SC#N)ccc1N=Cc1c(C)[nH]n(-c2ccc(C)c(C)c2)c1=O	-0.9	2.4%	-66*	-4.1	8	?
N/C(=N\NC(=O)c1cccc(F)c1)c1cc2ccccc2oc1=O	-0.3	0.1%	-4	-1.1	-7	1
CCCCc1ccc(NC(=S)NCCN2CCOCC2)cc1	-0.3	3.1%	-6	-1.6	0	0
Cc1cc(C)nc(SCC(=O)Nc2ncc(Cc3cccc(Cl)c3)s2)n1	1.1	3.4%	1	?	-24	3
O=S(=O)(Nc1cccc2cccnc12)c1ccc(S(=O)(=O)N2CCCC2)cc1	66*	·	-76*	-4.7	-3	-90*
O=C(O)/C=C/C(=O)NCCc1ccc(Cl)cc1	1.2	4.2%	2	-1.7	-8	0
COc1ccc(OC)c(NC(=O)C2CC(=O)N(CCc3ccccc3)C2)c1 (stereo not given)	-0.8	1.4%	2	-3.0	-6	2
COc1ccc(S(=O)(=O)N(C)C[C@@H]2OCc3cnnn3CCCC(=O)N([C@@H](C)CO)C[C@H]2C)cc1	·	-0.4%	6	0.9	·	3
CCn1c(Cc2ccccc2)nnc1SCC(=O)Nc1ccc(C)cc1	0.1	2.8%[38.3 µM]	22	-3.5	-21	43
CCOC(=O)c1cnc2ccc(C)cc2c1Sc1ccc(F)cc1	0.8	9.2%	6	-1.8	0	6
CCc1cc(Cn2nc(-c3ccccc3)cc2C(=O)NCc2ccccc2OC)on1	0.7	0.5%	6	-1.3	2	1
Fc1ccc(-[n+]2nc(Nc3ccccc3)sc2-c2ccc(OCc3ccccc3)cc2)cc1	0.1	?	-10	-2.3	-3	-1
CC1(c2ccccc2)CC(C)(C)N2C(=O)C(=O)c3cccc1c32 (stereo not given)	1.7	2.3%	3	-4.4	24	-20
Cc1ccc(S(=O)(=O)N(OCc2ccccc2)C(C)C(=O)O)cc1 (stereo not given)	0.3	0.3%	0	0.2	41	3
CCN(C)C1CN(Cc2cn(Cc3cc(C)cc(C)c3)nn2)S(=O)(=O)C1 (stereo not given)	-0.7	-0.9%	5	·	·	0
CCN1C(=O)/C(=C\c2ccc(F)cc2)N=C1SCC(=O)NCc1ccco1	-0.1	9.2%	4	-1.3	-7	6
O=C(NCCc1ccccc1)c1cnc2sc(N3CCCC3)nn2c1=O	-0.5	0.6%	·	·	5	·

Bioassay records (PubChem BioAssay)
